HSV augment: HSV replication enhancement | HSV replication augmentation in cells, fold increase | maximum fold increase | 220,000 compounds, 0.005% hits | AID 1956;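 active = peak rise of 1.5-fold or more in the series; inconclusive = self-fluorescent or not available for retest; tested in PC3 cells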;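 note: first round at 10 µM; read as green reporter fluorescence; hits show the peak of a series up to 25 µM; 1 = signal of infected wells without compound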
Insulin prom inh: TRM-6 insulin promoter activity inhibition | TRM-6 cells (human fetal islet line), insulin promoter-eGFP reporter, imaging; reporter expression induced with tamoxifen | inhibition, % at 2 µM | 130,000 compounds, 0.9% hits | AID 1273;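 active = inhibition above the mean plus 3 SD, with well images judged a real hit on visual review, cut at about 60% in these data, passing the limit was not always enough; inconclusive = inhibition over the cutoff but images rejected on review; inactive = inhibition not above the cutoff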
PKD1 kinase inh: inhibitors of human PKD1 kinase | Q15139 | PKD1 kinase fluorescence polarization assay | AID 797 | inhibition, %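 (about 10 µM by stock and volumes)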 | 200,000 compounds, 0.056% hits;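 active = inhibition of 50% or more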;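 note: controls were vehicle for no effect and a reference inhibitor for full effect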
GALR2 ag: agonists of human galanin receptor 2 (GALR2); O43603; GALR2-expressing cells, agonist activation read-out; activation, %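 (tested at 5 µM)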; 140,000 compounds, 0.48% hits; AID 803;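 active = above mean plus 3 SD of all compounds, about 5% in these data, not always enough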;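 note: 0% = vehicle buffer wells and 100% = reference agonist at full effect; tested in CHO reporter cells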
Target sequence (O43603 whole entry, looked up): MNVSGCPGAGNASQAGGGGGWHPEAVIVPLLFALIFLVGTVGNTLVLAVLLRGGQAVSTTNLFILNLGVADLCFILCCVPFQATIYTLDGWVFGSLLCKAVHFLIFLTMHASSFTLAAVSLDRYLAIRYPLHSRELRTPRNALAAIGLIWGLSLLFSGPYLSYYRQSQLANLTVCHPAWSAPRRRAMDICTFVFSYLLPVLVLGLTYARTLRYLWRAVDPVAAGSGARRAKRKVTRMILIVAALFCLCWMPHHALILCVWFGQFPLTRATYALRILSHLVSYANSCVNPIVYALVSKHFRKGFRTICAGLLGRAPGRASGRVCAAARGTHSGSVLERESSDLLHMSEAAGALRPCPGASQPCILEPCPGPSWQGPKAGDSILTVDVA
RGS16-Gao: RGS16-Galphao interaction regulator (human); bead-based flow cytometry RGS16-Galphao binding, fluorescence; actives lie on both sides; binding response (% of control), % at 10 µM; 220,000 compounds, 0.38% hits; AID 1441;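 active = below 25% or above 175%, edge rows of some plates excepted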;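 note: Galphao activated by GDP with aluminum fluoride before binding; 100% = wells without compound and 0% = beads without RGS; some results beyond the cut were filed as inactive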
Target sequence (O15492 whole entry, looked up): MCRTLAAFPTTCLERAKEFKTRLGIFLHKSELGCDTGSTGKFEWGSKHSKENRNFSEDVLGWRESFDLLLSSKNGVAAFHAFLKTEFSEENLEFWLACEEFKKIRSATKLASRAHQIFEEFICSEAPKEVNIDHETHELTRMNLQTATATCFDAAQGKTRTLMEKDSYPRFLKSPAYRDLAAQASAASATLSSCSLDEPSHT
Target sequence (P09471 whole entry, looked up): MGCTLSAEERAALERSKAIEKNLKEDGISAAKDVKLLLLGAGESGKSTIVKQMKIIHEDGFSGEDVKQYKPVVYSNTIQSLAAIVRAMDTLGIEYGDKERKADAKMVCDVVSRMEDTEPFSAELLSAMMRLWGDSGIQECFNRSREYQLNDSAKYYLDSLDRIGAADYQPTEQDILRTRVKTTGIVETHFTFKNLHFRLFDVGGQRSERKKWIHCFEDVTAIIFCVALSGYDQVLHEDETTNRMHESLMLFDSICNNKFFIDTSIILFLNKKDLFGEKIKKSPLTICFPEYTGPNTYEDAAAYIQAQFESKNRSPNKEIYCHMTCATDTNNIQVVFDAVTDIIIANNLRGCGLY
Insulin prom inh cell count: second read-out of Insulin prom inh, no call of its own (marks repeat the call); normalized cell count, %; measured here: cell count, toxicity; reference of the scale not given here;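 cells exposed to compound for 48 h; stained nuclei by imaging scaled within each plate; lower means fewer cells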
HSV augment primary fold: further read-out of HSV augment, marked with its call; fold increase; compound at 10 µM; measured here: primary screen fold increase 10 uM; tested in PC3 cells;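 GFP signal in the first replicate; 1 = infected wells without compound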
Numbers without * were called inactive; i = inactive; ? = inconclusive; · = no result given.

SMILES	HSV augment	HSV augment primary fold	Insulin prom inh	Insulin prom inh cell count	PKD1 kinase inh	GALR2 ag	RGS16-Gao
COc1ccc(-c2ocnc2C(=O)NCc2nn(-c3ccccc3)nc2C)cc1	i	1.2	·	·	·	·	102
CCC1(c2ccc(F)cc2)NC(=O)N(CC(=O)Nc2ccc(-c3nc4ccc(C)cc4s3)cc2)C1=O (stereo not given)	i	0.52	·	·	-1	0.4	107
N#C/C(=C\c1ccc(O)c(Br)c1)C(=O)NCc1ccccc1	i	1	-32	109	14	·	102
CCOc1ccccc1NC(=O)CN(c1ccc(C)cc1)S(=O)(=O)c1c(C)noc1C	i	1.1	-38	75	-4	-1.7	95
Cn1c(CCNC(=O)c2ccco2)nc2cc(NC(=O)c3ccco3)ccc21	i	0.76	18	69	2	-0.1	100
Cc1ccc(N2CC(C(=O)N3CCN(C(=O)c4ccco4)CC3)CC2=O)cc1 (stereo not given)	i	0.95	-9	86	-5	-2.1	103
CC1CCCCC1NC(=O)CN1CCN(Cc2ccccc2Cl)C1=O (stereo not given)	i	0.92	-19	99	-6	-1.7	99
O=C(Nc1ccc(OC(F)(F)C(F)F)c(NC(=O)c2cccc(F)c2)c1)c1cccc(F)c1	i	0.84	-9	90	1	0.2	97
COc1cccc(C(=O)Nn2c(C)nnc2-n2nc(C)cc2C)c1	i	1.1	69	87	0	-2.6	85
O=[N+]([O-])c1ccc(O)c(/C=N\N=C2c3ccccc3-c3ccccc32)c1	i	0.92	·	·	-11	-0.4	98
CCNc1c2c(nc3ccccc13)CC(C)(C)CC2=O	i	1	·	·	-12	0.0	113
Cc1cccc(NC(=O)c2ccc(COc3cccc4ccccc34)o2)n1	i	1.1	-19	107	-12	-0.9	103
COc1cc(/C=C(\C#N)C(=O)Nc2ccc3ccccc3c2)c([N+](=O)[O-])cc1OC	·	·	·	·	-18	0.3	104
O=C(Cn1c(=O)sc2ccccc21)NCCOc1ccccc1F	i	0.86	35	58	-6	-2.6	102
CCOC(=O)CSc1nnc(CSc2nc(C)cc(C)n2)n1Cc1ccco1	i	0.89	50	104	-14	-1.6	94
CC(Sc1ccccc1)C(=O)Nc1ccc(N2CCOCC2)cc1 (stereo not given)	i	0.95	·	·	-1	-2.1	95
CC1(C)CC(=O)C2=C(C1)OC(N)=C(C#N)C2C1CC=CCC1 (stereo not given)	i	1.1	57	136	-6	-1.6	100
O=C1c2ccccc2C(O)N1c1cccnc1 (stereo not given)	i	0.98	·	·	-6	-1.3	103
N#CC1=C(N)N2C(=C(C#N)C1c1ccc(Br)cc1)Nc1ccccc12 (stereo not given)	·	·	·	·	2	3.4	94
Oc1ccc(/C=N/NC(=S)NCc2ccco2)cc1	i	0.88	-13	66	-4	-2.3	100

An excerpt from above in order of heavy-atom count, smallest number first.
SMILES	HSV augment	HSV augment primary fold	Insulin prom inh	Insulin prom inh cell count	PKD1 kinase inh	GALR2 ag	RGS16-Gao
O=C1c2ccccc2C(O)N1c1cccnc1 (stereo not given)	i	0.98	·	·	-6	-1.3	103
CCNc1c2c(nc3ccccc13)CC(C)(C)CC2=O	i	1	·	·	-12	0.0	113
CC1CCCCC1NC(=O)CN1CCN(Cc2ccccc2Cl)C1=O (stereo not given)	i	0.92	-19	99	-6	-1.7	99

Later entries:
SMILES	HSV augment	HSV augment primary fold	Insulin prom inh	Insulin prom inh cell count	PKD1 kinase inh	GALR2 ag	RGS16-Gao
O=C(Cn1cnc([N+](=O)[O-])n1)N/N=C/c1ccccc1O	i	0.95	43	70	-13	-2.8	95
Cn1c(NC(=O)c2ccc(Cl)cc2Cl)cc(=O)n(C)c1=O	i	0.86	·	·	-12	0.6	98
CCNc1nc(NCC)n2c(SC(C)C(=O)c3ccc(C)cc3)nnc2n1 (stereo not given)	i	1.4	·	·	2	1.2	132
COc1ccc(C)cc1NC(=O)CSc1nnc(-c2ccc(C)cc2)o1	i	0.93	·	·	-1	-2.3	104
C/C(CCc1ccccc1)=N\NC(=O)c1ccccc1[N+](=O)[O-]	·	·	-8	80	-2	-0.1	109
CCN(CC)c1ccc(N2C(=O)c3ccccc3C2=O)cc1	i	0.96	0	101	-13	0.1	105
COC(=O)c1cccc(N(C(=O)c2cnccn2)C(C(=O)NCc2ccccc2)c2ccco2)c1 (stereo not given)	i	1	14	116	-2	-0.5	104
CC(C)N(C(=O)COC(=O)c1ccccc1C(=O)c1ccc(Cl)c([N+](=O)[O-])c1)C(C)C	i	0.87	·	·	5	·	97
COc1cc(/C=C2\SC(=S)N(Nc3ncc(C(F)(F)F)cc3Cl)C2=O)ccc1O	?	·	49	40	0	-0.9	109
Nc1ccc(O)c(-c2nc3ccccc3s2)c1	i	0.87	-3	80	-8	-2.1	101
Cc1ccccc1-n1cc(CNC(=O)CC2C(=O)NCCN2C/C=C/c2ccccc2)cn1 (stereo not given)	i	1	·	·	-2	·	107
CCOc1ccc(NC(=O)CSC2=NCCN2)cc1	i	1.1	0	111	-5	-1.0	102
O=C1OC(Nc2ccccn2)c2ccccc21 (stereo not given)	i	0.87	15	87	5	-2.0	100
CCOC(=O)N1CCN(c2nc(-c3ccc(OC)cc3)no2)CC1	i	0.97	·	·	-10	-2.7	101
COCC(=O)Nc1cc(Cl)ccc1C(F)(F)F	i	0.91	22	85	4	·	100
c1ccc2c(CSc3nnc(-c4ccncc4)o3)cccc2c1	i	0.67	-26	69	-7	-0.3	91
C=CCCC(=O)Nc1ccc(COC(=O)N2CCOCC2)cc1	i	0.83	-6	63	-7	0.1	101
COc1ccccc1-n1c(C)nnc1SCC(=O)Nc1cccc(C(C)=O)c1	i	0.78	50	135	-3	-2.6	101
CC(=O)Nc1ccc(OC(=O)c2ccc(Br)c([N+](=O)[O-])c2)cc1	i	0.88	·	·	-2	·	72
CCc1ccc(-n2c(C)nc3cc(C(=O)NCc4cccnc4)ccc32)cc1	i	0.9	·	·	-1	·	101
Cc1ccc(S(=O)(=O)NCc2ccc(C(=O)N(C)CCC#N)cc2)cc1	i	1	·	·	6	-0.2	102
O=C(Nc1cccc(NC(=O)c2cccs2)c1)c1ccc2c(c1)OCO2	i	0.87	53	115	-1	·	115
Cc1ccc2nc(NC(=O)C3CCN(S(=O)(=O)c4ccc5c(c4)oc(=O)n5C)CC3)sc2c1	i	1.1	·	·	-12	-1.2	103
O=C(OCc1nnc(-c2ccccc2)o1)C1=COCCO1	i	0.94	-30	123	-9	-0.9	98
Cc1cccc(C(=O)Nc2ccc(O)cc2C(=O)O)c1	i	0.97	-43	75	-6	·	104
O=C(N1CCOCC1)N1CCN(S(=O)(=O)c2ccccc2)C1	i	0.84	-73	50	-6	-2.0	102
CCn1ccnc1CN(C)Cc1cn[nH]c1-c1ccc(F)cc1F	i	0.89	·	·	-2	·	100
CC(=O)N1N=C(c2cccc([N+](=O)[O-])c2)OC1c1ccccc1Cl (stereo not given)	i	0.89	·	·	18	-2.6	101
O=C(NCc1cccc(Cl)c1)c1cnccn1	i	0.81	·	·	0	-1.7	106
CN1C[C@@H]2C(c3ccc(Cl)nc3)C3(c4ccccc4)CC2(C3)[C@H]1c1ccccc1 (stereo not given in full)	i	0.96	·	·	·	·	105
Cc1ccc(-n2c3nc(=O)[nH]c(=O)c-3cc3c(C)nn(-c4ccccc4)c32)c(C)c1	i	0.86	-27	119	2	-0.6	105
Cc1cc(C)cc(NC(=S)NC(=O)CCN2C(=O)c3ccccc3C2=O)c1	i	1	-11	95	-1	0.1	115
COc1cccc(CNC(=O)C2CCCN(S(=O)(=O)c3c(C)[nH]c(=O)[nH]c3=O)C2)c1 (stereo not given)	i	0.74	·	·	2	-1.5	100
Cc1cccc(-n2c(N)cc(=O)nc2SCC(=O)Nc2nnc(C)s2)c1	·	·	10	85	7	-1.2	105
CN(C)c1cc[n+](Cc2c(Cl)cccc2Cl)cc1	i	1	6	86	-5	-0.8	120
CCOC(=O)/C(C#N)=C/c1cn(CCC(=O)O)nc1-c1cccc(Br)c1	i	1	·	·	-9	·	100
CC(=O)Nc1ccc(-c2csc(NCc3ccco3)n2)cc1	i	1.1	-3	118	-5	-1.0	97
O=C1CC(c2ccccc2)CN1Cc1ccccc1 (stereo not given)	i	0.72	8	78	-1	-1.8	106
Nc1nc(Cl)cc(Sc2ccc3ccccc3c2)n1	i	0.73	-25	144	2	-3.2	100
COc1ccc(CC(=O)Nc2cc(Cl)ccc2O)cc1	i	0.74	38	119	13	-0.9	15
COCCN(C(=O)C(C)C)c1nnc(-c2ccc(C(C)(C)C)cc2)s1	i	0.88	·	·	0	·	105
O=C(Nc1nc2c(s1)CN(Cc1ccccc1)CC2)c1c(F)cccc1F	i	0.9	-22	122	6	·	103
CCOC(=O)N1CCN(Cc2nc3c(c(=O)[nH]c(=O)n3C)n2Cc2cc(C)ccc2C)CC1	i	1.1	12	154	6	0.1	96
CC(C)[C@H](NC(=O)OC(C)(C)C)C(=O)N/N=C/c1ccc2nccnc2c1	i	0.94	·	·	·	·	85
CCN(CC)c1ccc(/C=N/NC(=O)c2cccc(N3CCCC3=O)c2)cc1	i	0.83	·	·	-15	·	106
COCCNC(=O)c1ccc(-n2c(SCc3cc(F)ccc3F)nc3ccccc3c2=O)cc1	i	0.94	-9	85	-3	1.9	106
CCOC(=O)/C(=C/Nc1ccc(F)c(F)c1)[N+](=O)[O-]	i	0.92	·	·	·	·	105
COC(=O)c1cc(C)sc1NC(=O)C1CC=CCC1C(=O)O (stereo not given)	i	1.1	20	76	0	-2.3	101
COc1cc(/C=N/NC(=S)NC2CC3CCC2C3)ccc1O (stereo not given)	i	0.8	·	·	·	·	103
O=C(OCc1c(Cl)cccc1Cl)c1ccccn1	i	1	·	·	3	-1.5	88
CN1C(=O)CSc2ccc(NC(=O)NCc3ccc(F)cc3)cc21	i	0.82	7	108	-8	·	103
Cn1ncc(Cl)c1C(=O)N1CCN(c2ncccn2)CC1	i	0.95	·	·	6	·	97
CCOC(=O)N1CCC(Nc2c(Nc3ccc(F)cc3)c(=O)c2=O)CC1	?	·	41	167	-2	-2.6	100
CC(NC(=O)Cc1cccs1)C(c1cccs1)N1CCN(c2ccccc2)CC1 (stereo not given)	i	0.92	25	70	-2	-2.7	·
CCOc1ccc(-n2c(=O)c3sccc3n(Cc3cccc([N+](=O)[O-])c3)c2=O)cc1	i	1.1	·	·	-6	·	100
O=C(NC1CC1)c1cc(=O)c2ccccc2o1	i	0.91	0	267	-2	-0.2	97
O=C(c1ccco1)N1CCN(c2ncnc3c2oc2ccccc23)CC1	i	0.9	16	191	-4	-2.0	98
O=C(NCc1ccccn1)c1cc(-c2ccccc2Cl)nc2ccccc12	i	0.98	30	91	1	-1.1	111
COc1ccc(Nc2nc(N)nc(CN3CCC(C)CC3)n2)cc1	i	0.77	27	105	-6	·	106
Cc1c(NC(=O)c2ccc3c(c2)C(=O)N(CC2CCCO2)C3=O)cccc1C(=O)O (stereo not given)	·	·	7	137	3	-3.4	86

Of the compounds above, these contain fluorine:
SMILES	HSV augment	HSV augment primary fold	Insulin prom inh	Insulin prom inh cell count	PKD1 kinase inh	GALR2 ag	RGS16-Gao
CCC1(c2ccc(F)cc2)NC(=O)N(CC(=O)Nc2ccc(-c3nc4ccc(C)cc4s3)cc2)C1=O (stereo not given)	i	0.52	·	·	-1	0.4	107
O=C(Nc1ccc(OC(F)(F)C(F)F)c(NC(=O)c2cccc(F)c2)c1)c1cccc(F)c1	i	0.84	-9	90	1	0.2	97
O=C(Cn1c(=O)sc2ccccc21)NCCOc1ccccc1F	i	0.86	35	58	-6	-2.6	102
COc1cc(/C=C2\SC(=S)N(Nc3ncc(C(F)(F)F)cc3Cl)C2=O)ccc1O	?	·	49	40	0	-0.9	109
COCC(=O)Nc1cc(Cl)ccc1C(F)(F)F	i	0.91	22	85	4	·	100
CCn1ccnc1CN(C)Cc1cn[nH]c1-c1ccc(F)cc1F	i	0.89	·	·	-2	·	100
O=C(Nc1nc2c(s1)CN(Cc1ccccc1)CC2)c1c(F)cccc1F	i	0.9	-22	122	6	·	103
COCCNC(=O)c1ccc(-n2c(SCc3cc(F)ccc3F)nc3ccccc3c2=O)cc1	i	0.94	-9	85	-3	1.9	106
CCOC(=O)/C(=C/Nc1ccc(F)c(F)c1)[N+](=O)[O-]	i	0.92	·	·	·	·	105
CN1C(=O)CSc2ccc(NC(=O)NCc3ccc(F)cc3)cc21	i	0.82	7	108	-8	·	103
CCOC(=O)N1CCC(Nc2c(Nc3ccc(F)cc3)c(=O)c2=O)CC1	?	·	41	167	-2	-2.6	100
